Source: PubChem
A1 apoptosis 2 – A1 inhibitors via caspase activation, primary screen, cell-based, luminescence, HTS, two replicates | caspase activation, % (concentration not given with the values) | 24,000 tested, under 10 active | AID 2465, 2010 | MEF A1-2A-BIM cells, caspase-Glo luminescence, 3 h; percent of clofoctol response, DMSO zero; in the data active = caspase activation above about 5.9%;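 note: wells of about 30 µL received 50 nL stock; the first replicate is given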
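System: mouse embryonic fibroblasts co-expressing A1 and BIM (A1-2A-BIM), primed for A1 dependence; amount: 2500 cells/well; doses: 50 nL pinned compound; schedule: cells settled overnight, compound exposure 3 h at 37 °C, 5% CO2; detection: Caspase-Glo 3/7 luminescence, 1 h at room temperature; read-out: Caspase-3/7 activation, seen as rise in luminescence signal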
* hit, by the source's call. This is a subset; count on the stated rates, not on these rows.

Molecule,A1 apoptosis 2
C[C@H]1CN([C@@H](C)CO)C(=O)c2cccc(NS(=O)(=O)c3ccccc3)c2O[C@H]1CN(C)Cc1ccc(C(=O)Nc2ccccc2N)cc1,-0.8
C[C@@H]1CCCCO[C@H](CN(C)C(=O)Nc2ccc(F)cc2)[C@H](C)CN([C@@H](C)CO)C(=O)c2cc(NC(=O)c3ccncc3)ccc2O1,-0.5
C[C@H]1CCCCO[C@@H](CN(C)C(=O)Nc2ccc(F)cc2)[C@@H](C)CN([C@@H](C)CO)C(=O)c2cc(NS(=O)(=O)c3ccc(Cl)cc3)ccc2O1,0.3
C[C@@H]1CN([C@@H](C)CO)C(=O)c2cccc(NC(=O)Nc3ccc4c(c3)OCO4)c2O[C@@H]1CN(C)Cc1ccccc1,1.3
Cc1noc(C)c1NC(=O)N(C)C[C@H]1Oc2c(NC(=O)Nc3ccc(C(F)(F)F)cc3)cccc2C(=O)N([C@H](C)CO)C[C@H]1C,-1.3
C[C@H](CO)N1C[C@H](C)[C@@H](CN(C)C(=O)Nc2ccc(F)cc2)Oc2ccc(NC(=O)Nc3ccc(F)cc3)cc2CC1=O,0.4
C[C@@H]1CN([C@@H](C)CO)C(=O)c2cc(NS(=O)(=O)c3ccc(Cl)cc3)ccc2O[C@@H](C)CCCCO[C@H]1CN(C)S(=O)(=O)c1ccc(Cl)cc1,-1.3
Cc1noc(C)c1NC(=O)Nc1cccc2c1O[C@H](CN(C)Cc1ccc(C(=O)O)cc1)[C@H](C)CN([C@H](C)CO)C2=O,-0.3
COc1ccc(S(=O)(=O)N(C)C[C@@H]2OCCCC[C@H](C)Oc3ccc(NS(=O)(=O)c4ccccc4)cc3C(=O)N([C@H](C)CO)C[C@@H]2C)cc1,0.0
C[C@H]1CN([C@@H](C)CO)C(=O)Cc2cc(NC(=O)Nc3ccc(C(F)(F)F)cc3)ccc2O[C@H]1CN(C)C(=O)Nc1ccc(F)cc1,0.6
C[C@@H]1CN([C@H](C)CO)C(=O)c2cc(NC(=O)Nc3ccc(F)cc3)ccc2O[C@@H](C)CCCCO[C@H]1CN(C)S(=O)(=O)c1ccc(Cl)cc1,-0.9
COc1ccc(CN(C)C[C@H]2OCCCC[C@H](C)Oc3ccc(NC(=O)Nc4ccc(C(F)(F)F)cc4)cc3C(=O)N([C@H](C)CO)C[C@H]2C)cc1,1.2
O=C(C1=C[C@H](c2ccc(Br)cc2)C[C@H](OCCCCO)O1)N1CCN(Cc2ccc3c(c2)OCO3)CC1,-1.2
C[C@H]1CN([C@@H](C)CO)C(=O)CCCn2nncc2CO[C@@H]1CN(C)C(=O)Nc1cccc(F)c1,0.0
C[C@@H]1CN([C@@H](C)CO)C(=O)c2cccc(NC(=O)Nc3ccc(F)cc3)c2O[C@@H]1CN(C)S(=O)(=O)c1cn(C)cn1,0.3
COc1ccccc1CN(C)C[C@H]1OCc2cn(nn2)CCCC(=O)N([C@@H](C)CO)C[C@@H]1C,-0.2
O=C(CCCCCC(=O)Nc1ccccc1O)N/N=C/c1ccc(Br)s1,0.2
C[C@@H]1CCCCO[C@@H](CN(C)S(=O)(=O)c2cn(C)cn2)[C@H](C)CN([C@H](C)CO)C(=O)c2cc(NC(=O)Cc3ccccc3)ccc2O1,1.1
Cc1ccc(S(=O)(=O)Nc2ccc3c(c2)C(=O)N([C@H](C)CO)C[C@H](C)[C@H](CN(C)S(=O)(=O)c2cn(C)cn2)OCCCC[C@H](C)O3)cc1,1.6
COc1ccccc1NC(=O)N(C)C[C@@H]1OCc2cnnn2CCCC(=O)N([C@@H](C)CO)C[C@H]1C,-0.5
CC(C)NC(=O)N(C)C[C@H]1Oc2ccc(NC(=O)CCC(F)(F)F)cc2C(=O)N([C@@H](C)CO)C[C@H]1C,0.9
C[C@@H]1CN([C@H](C)CO)C(=O)Cc2cc(NC(=O)CCC(F)(F)F)ccc2O[C@H]1CN(C)S(=O)(=O)c1ccccc1,0.3
COc1ccc(NC(=O)Nc2ccc3c(c2)C(=O)N([C@H](C)CO)C[C@@H](C)[C@@H](CN(C)CC2CCCCC2)OCCCC[C@@H](C)O3)cc1,-0.1
COC(=O)CCCCCCC(=O)N/N=C/c1ccc(O)cc1,1.1
Cc1ccc(S(=O)(=O)N(C)C[C@@H]2Oc3ccc(NS(=O)(=O)c4cccs4)cc3CC(=O)N([C@H](C)CO)C[C@@H]2C)cc1,-0.6
C[C@H](CO)N1C[C@H](C)[C@H](CN(C)S(C)(=O)=O)Oc2ccc(NC(=O)CCCCCC(=O)Nc3ccccc3N)cc2CC1=O,-0.4
C[C@H]1CN([C@@H](C)CO)C(=O)c2cccc(N(C)C)c2O[C@H]1CN(C)Cc1ccc(C(=O)O)cc1,0.6
C[C@H](CO)N1C[C@H](C)[C@H](CN(C)Cc2ccc3c(c2)OCO3)Oc2c(NC(=O)NC3CCCCC3)cccc2C1=O,-1.0
C[C@H](CO)N1C[C@H](C)[C@@H](CN(C)S(=O)(=O)c2cccs2)Oc2c(NC(=O)c3ccncc3)cccc2C1=O,-1.2
C[C@H]1CN([C@@H](C)CO)C(=O)Cc2cc(NC(=O)NC3CCCCC3)ccc2O[C@H]1CN(C)S(C)(=O)=O,0.5
C[C@@H]1CCCCO[C@H](CN(C)C)[C@H](C)CN([C@@H](C)CO)C(=O)c2cc(NC(=O)Nc3ccc4c(c3)OCO4)ccc2O1,1.8
C[C@H](CO)N1C[C@H](C)[C@H](CN(C)S(=O)(=O)c2ccccc2)OCCCC[C@H](C)Oc2ccc(NC(=O)Nc3ccc(F)cc3)cc2C1=O,-0.6
COC(=O)CCCCCCC(=O)NOCc1ccccc1,-1.6
C[C@@H]1CCCCO[C@H](CN(C)Cc2ccc3c(c2)OCO3)[C@@H](C)CN([C@H](C)CO)C(=O)c2cc(NC(=O)NC3CCCCC3)ccc2O1,-1.6
Cc1ccc(S(=O)(=O)Nc2ccc3c(c2)C(=O)N([C@H](C)CO)C[C@H](C)[C@H](CN(C)C(=O)CCC(F)(F)F)OCCCC[C@H](C)O3)cc1,0.8
COc1ccc(S(=O)(=O)N(C)C[C@H]2Oc3c(NS(=O)(=O)c4cccs4)cccc3C(=O)N([C@@H](C)CO)C[C@@H]2C)cc1,-0.7
C[C@H](CO)N1C[C@H](C)[C@H](CN(C)C(=O)Nc2ccc3c(c2)OCO3)Oc2ccc(NS(=O)(=O)c3ccc(Cl)cc3)cc2C1=O,-0.7
C[C@H](CO)N1C[C@H](C)[C@@H](CN(C)Cc2ccc(C(=O)O)cc2)Oc2ccc(NC(=O)Nc3ccc(F)cc3)cc2CC1=O,1.1
Cc1noc(C)c1S(=O)(=O)Nc1ccc2c(c1)C(=O)N([C@@H](C)CO)C[C@@H](C)[C@@H](CN(C)C(=O)Nc1cccc3ccccc13)OCCCC[C@@H](C)O2,-0.5
O=C(N/N=C/c1ccccc1OCCO)c1ccccn1,0.3
CNC[C@H]1Oc2c(NC(=O)c3ccc(-c4nccs4)cc3)cccc2C(=O)N([C@H](C)CO)C[C@@H]1C,1.3
C[C@H](CO)N1C[C@H](C)[C@@H](CN(C)Cc2ccc(Oc3ccccc3)cc2)Oc2ccc(NC(=O)CCN3CCOCC3)cc2CC1=O,0.6
CNC[C@H]1OCCCC[C@H](C)Oc2ccc(NS(=O)(=O)c3ccc(OC)cc3)cc2C(=O)N([C@@H](C)CO)C[C@H]1C,-0.6
C[C@@H]1CN([C@H](C)CO)C(=O)Cc2cc(NS(=O)(=O)c3ccccc3)ccc2O[C@@H]1CN(C)C(=O)Nc1ccccc1,-0.6
C[C@H]1CN([C@@H](C)CO)C(=O)CCCn2cc(nn2)CO[C@@H]1CN(C)C(=O)c1cc(-c2ccccc2)on1,2.3
C[C@H](CO)N1C[C@H](C)[C@H](CN(C)Cc2ccc(Cl)c(Cl)c2)Oc2ccc(NS(C)(=O)=O)cc2CC1=O,0.2
CC(C)NC(=O)Nc1cccc2c1O[C@H](CN(C)C(=O)Nc1ccc(F)cc1)[C@@H](C)CN([C@H](C)CO)C2=O,0.8
COc1cccc(NC(=O)N(C)C[C@H]2OCc3cnnn3CCCC(=O)N([C@H](C)CO)C[C@@H]2C)c1,2.2
C[C@@H]1CN([C@H](C)CO)C(=O)c2cc(NC(=O)Cc3ccccc3)ccc2O[C@H]1CN(C)S(C)(=O)=O,0.4
C[C@@H]1CCCCO[C@@H](CN(C)C(=O)C2CCCCC2)[C@@H](C)CN([C@@H](C)CO)C(=O)c2cc(NC(=O)c3ccncc3)ccc2O1,0.5
COC(=O)CCCCCCC(=O)N/N=C\c1cccnc1Br,-0.3
CC(C)NC(=O)Nc1cccc2c1O[C@@H](CN(C)C(=O)Nc1ccc(F)cc1)[C@H](C)CN([C@H](C)CO)C2=O,-0.7
C[C@@H]1CCCCO[C@@H](CN(C)CC2CC2)[C@@H](C)CN([C@H](C)CO)C(=O)c2cc(NC(=O)Nc3ccc(F)cc3)ccc2O1,-0.5
C[C@H](CO)N1C[C@H](C)[C@H](CN(C)C)OCCCC[C@H](C)Oc2ccc(NC(=O)c3ccncc3)cc2C1=O,-0.1
C[C@H]1CN([C@@H](C)CO)C(=O)Cc2cc(NC(=O)Nc3ccc(C(F)(F)F)cc3)ccc2O[C@H]1CN(C)Cc1ccc(C(=O)Nc2ccccc2N)cc1,0.2
C[C@@H]1CCCCO[C@@H](CN(C)C(=O)Nc2ccc3c(c2)OCO3)[C@H](C)CN([C@@H](C)CO)C(=O)c2cc(NC(=O)Nc3ccc4c(c3)OCO4)ccc2O1,0.1
C[C@@H]1CCCCO[C@@H](CN(C)Cc2ccc(Cl)c(Cl)c2)[C@H](C)CN([C@H](C)CO)C(=O)c2cc(NC(=O)Nc3ccc4c(c3)OCO4)ccc2O1,1.5
Cc1noc(C)c1S(=O)(=O)Nc1ccc2c(c1)CC(=O)N([C@H](C)CO)C[C@@H](C)[C@@H](CN(C)Cc1ccc(C(F)(F)F)cc1)O2,1.0
C[C@@H]1CN([C@@H](C)CO)C(=O)Cc2cc(NC(=O)Nc3ccc(F)cc3)ccc2O[C@@H]1CN(C)C(=O)NC1CCCCC1,-0.7
C[C@@H]1CN([C@@H](C)CO)C(=O)Cc2cc(NC(=O)CCN3CCOCC3)ccc2O[C@@H]1CN(C)Cc1ccc(C(F)(F)F)cc1,1.3

(next part)
Molecule,A1 apoptosis 2
COc1ccccc1S(=O)(=O)N(C)C[C@@H]1OCc2cnnn2CCCC(=O)N([C@H](C)CO)C[C@@H]1C,-0.7
COc1ccc(C#Cc2ccc3c(c2)[C@]2(C(=O)N3)[C@H](C(=O)N3CCc4cc(OC)c(OC)cc4C3)[C@H]3C(=O)O[C@H](c4ccccc4)[C@H](c4ccccc4)N3[C@@H]2c2ccc(O)cc2)cc1,-0.6
C[C@H]1CN([C@@H](C)CO)C(=O)c2cccc(NC(=O)c3ccc(-c4nccs4)cc3)c2O[C@H]1CN(C)Cc1ccc(Oc2ccccc2)cc1,-1.9
C[C@H](CO)N1C[C@H](C)[C@H](CN(C)C(=O)Nc2ccccc2)Oc2c(NS(=O)(=O)c3ccccc3)cccc2C1=O,1.5
C[C@@H]1CCCCO[C@H](CN(C)C(=O)C2CCCCC2)[C@H](C)CN([C@H](C)CO)C(=O)c2cc(NS(=O)(=O)c3ccccc3)ccc2O1,-0.3
C[C@@H]1CCCCO[C@@H](CN(C)C(=O)Cc2ccccc2)[C@H](C)CN([C@H](C)CO)C(=O)c2cc(NC(=O)c3ccncc3)ccc2O1,-0.8
COc1ccc(S(=O)(=O)N(C)C[C@H]2Oc3ccc(NC(=O)Cc4cn(C)c5ccccc45)cc3C(=O)N([C@H](C)CO)C[C@H]2C)cc1,-0.2
C[C@@H]1CN([C@@H](C)CO)C(=O)Cc2cc(NC(=O)Cn3cnnn3)ccc2O[C@H]1CN(C)C(=O)Nc1ccc2c(c1)OCO2,-1.5
CC(C)NC(=O)N(C)C[C@H]1Oc2c(NS(=O)(=O)c3cn(C)cn3)cccc2C(=O)N([C@@H](C)CO)C[C@@H]1C,0.3
Cc1noc(C)c1S(=O)(=O)N(C)C[C@H]1OCCCC[C@@H](C)Oc2ccc(NC(=O)Nc3ccc(C(F)(F)F)cc3)cc2C(=O)N([C@@H](C)CO)C[C@@H]1C,0.3
